# Screening data from PubChem BioAssay.
# D2 potentiator: human D2 receptor positive allosteric modulation; DiscoveRx D2 beta-arrestin cells, luminescence, 90 min; 100% = 57 uM dopamine signal; 360,000 compounds, 0.23% hits; potentiation, % (test concentration not listed); P14416; AID 624464; active = potentiation of 50% or more; inconclusive = 30% to 50%; inactive = 30% or less;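 also: compound concentration not given in the record; tested on top of an EC20 dose of dopamine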
# Target sequence (P14416 whole entry, looked up): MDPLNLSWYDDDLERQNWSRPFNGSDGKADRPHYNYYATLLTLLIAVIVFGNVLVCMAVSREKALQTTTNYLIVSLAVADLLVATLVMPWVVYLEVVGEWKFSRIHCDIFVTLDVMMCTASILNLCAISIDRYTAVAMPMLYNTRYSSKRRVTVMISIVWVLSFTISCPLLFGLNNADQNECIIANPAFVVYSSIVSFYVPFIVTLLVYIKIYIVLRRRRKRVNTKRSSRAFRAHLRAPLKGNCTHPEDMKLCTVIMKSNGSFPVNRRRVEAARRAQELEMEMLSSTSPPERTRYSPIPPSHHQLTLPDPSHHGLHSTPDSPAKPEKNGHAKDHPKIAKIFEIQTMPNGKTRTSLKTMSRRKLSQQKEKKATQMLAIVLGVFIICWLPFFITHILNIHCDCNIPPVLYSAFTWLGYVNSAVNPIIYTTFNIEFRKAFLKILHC
#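 PathHunter beta-arrestin assay in DiscoveRx D2 cells. Compounds were added with an EC20 of dopamine (50 nM final) for 90 min at 37 deg C. Luminescence was read 1 h after detection reagent, with 57 uM dopamine as the EC100 control.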
# TRPML1 inh: inhibitors of human TRPML1 channel; Q9GZU1; TRPML1-inducible cells, Ca2+ dye fluorescence, FDSS; hits give low values; inhibition of EC80 agonist-evoked calcium signal; activity change, negative = inhibition, % (test concentration not listed); 390,000 compounds, 0.02% hits; in the data active means activity change below about -50%; inconclusive means about -30% to -50%; inactive means above about -30%;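 also: stimulus is agonist 54-4 at its EC80 concentration; % is scaled to controls: 0 for no effect and ±100 for the full control effect; compound concentration not given in the record; the text of the record puts the active cut at -80%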
# Target sequence (Q9GZU1 whole entry, looked up): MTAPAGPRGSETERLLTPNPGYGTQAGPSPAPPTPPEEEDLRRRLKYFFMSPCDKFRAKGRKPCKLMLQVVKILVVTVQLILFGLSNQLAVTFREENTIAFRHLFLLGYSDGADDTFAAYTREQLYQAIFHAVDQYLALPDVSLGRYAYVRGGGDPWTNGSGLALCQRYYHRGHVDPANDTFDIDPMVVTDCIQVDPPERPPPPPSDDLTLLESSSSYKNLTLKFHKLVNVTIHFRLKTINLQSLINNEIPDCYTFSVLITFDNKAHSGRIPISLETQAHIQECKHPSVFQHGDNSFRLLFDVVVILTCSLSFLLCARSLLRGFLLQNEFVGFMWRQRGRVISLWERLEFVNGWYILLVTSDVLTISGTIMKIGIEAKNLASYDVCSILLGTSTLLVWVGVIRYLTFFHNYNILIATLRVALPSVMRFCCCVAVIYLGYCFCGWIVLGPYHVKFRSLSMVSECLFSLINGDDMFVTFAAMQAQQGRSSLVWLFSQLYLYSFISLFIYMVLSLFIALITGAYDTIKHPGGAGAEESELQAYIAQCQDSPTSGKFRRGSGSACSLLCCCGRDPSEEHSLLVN
#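 Tet-induced TRPML1-DL cells loaded with Ca8 no-wash calcium dye were read kinetically on FDSS. Compound addition was followed by EC80 agonist 54-4 (4 uM final); inhibition was read over 110 s.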
# PINK1 modulator: modulators of PINK1 expression | 410,000 compounds, 0.2% hits | Potency, µM (highest dose often 76.6 µM), for inactives: at the highest dose activation (PINK1 increase), usual class: activators | PINK1 immunofluorescence, high-content cytometry, 24 h | AID 624263; active = well fitted activation curve with a large enough effect; inconclusive = small, poorly fitted or top-dose-only effect; inactive = flat fitted curve, though single readings scatter; cell line not stated here;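 also: potency is read from the fitted curve at half-maximal effect; % of control where 0% means no effect; nearly all actives have a fitted effect of over 65% in size; a mitochondrial uncoupler was the plate control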
#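 Measures PINK1 amount and localization on or inside mitochondria by immunofluorescence. Stable cells get compounds at 5 concentrations for 24 hours before fixation and staining; CCCP controls included.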
# Six1-Eya2 blk: Six1/Eya2 interaction inhibition. Q15475+O00167. AlphaScreen GST-Six1/His-Eya2 binding, biochemical; hits give low values; control for the full effect not named in the record. activity change, % (concentration not given with the values). 360,000 compounds, 0.56% hits; in the data active = activity change below about -65%; inconclusive = about -30% to -65%; inactive = above about -30%; also: % is scaled to controls: 0 for no effect and ±100 for the full control effect
#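 GST-Six1 + His-Eya2 (5X stock: 250/500 nM); Tris pH 8.0, 300 mM NaCl, 0.05% BSA, 0.02% Tween 20; GSH donor/Ni acceptor beads; 1 h 37 °C dark; AlphaScreen readout.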
# D2 agonist: activates the human D2 dopamine receptor; activation, % (test concentration not listed); 360,000 compounds, 0.084% hits; DiscoveRx PathHunter D2 beta-arrestin, luminescence, 90 min; 100% = 57 uM dopamine signal; in the data active = activation above about 40%; inconclusive = about 15% to 40%; inactive = below about 15%; also: compound concentration not given in the record; the text of the record calls up to 30% inactive
#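 Agonist mode: compounds alone added to overnight-plated D2 PathHunter cells for 90 min at 37 C, with 57 uM final dopamine (EC100) defining full response. Beta-arrestin recruitment detected by chemiluminescent reagent, read after 1 h at ambient temperature.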
# TRPML1 ag: activates the human TRPML1 channel. activation, % (concentration not given with the values). TRPML1-expressing cells, Ca2+ dye fluorescence, FDSS; host cell line not named in the record; reference of the full effect not given here. 410,000 compounds, 0.12% hits; in the data active = activation above about 50%; inconclusive = about 30% to 50%; inactive = below about 30%; also: 0% is about no effect; the text of the record puts the active cut at 80%
#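 Kinetic FDSS Ca2+ read in Tet-induced TRPML1-DL cells (ABD Ca8 dye plus quencher, 45-90 min RT loading): baseline, then compound, then 110 s agonist window; EC80 agonist 54-4 at 4uM final added afterwards for a 110 s antagonist window.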
# Starred values were filed as active, the others as inactive; u = inconclusive; x = not tested or not shown; & = joins results of further samples; [ ] = remark or other dose.
SMILES,D2 potentiator,TRPML1 inh,PINK1 modulator,Six1-Eya2 blk,D2 agonist,TRPML1 ag
COc1ccc(CCNC(=O)Cn2c(=O)c3sccc3n(CC(=O)Nc3cccc(C(F)(F)F)c3)c2=O)cc1OC,x,14,0.3%,x,x,-0.5
O=c1c2c(nc3c(-c4ccccc4)c[nH]n13)CCCC2,-28,2,-1.5%,-13,-1.5,-0.4
Cc1ccsc1CN(C)C(=O)CN1C(=O)NC2(CCCCC2C)C1=O (stereo unspecified),1,-6,1.9%,4,-0.8,0.1
O=C(Nc1ccc(C(F)(F)F)cc1)c1ccc2ncsc2c1,-27,19,2.9%,5,5.2,-0.1
CCN(CC)C(=O)c1sc2c(c1C)c(=O)n(-c1ccc(C)c(C)c1)c(=O)n2CC(=O)Nc1ccc(F)cc1,x,-7,2.7%,x,x,0.8
CCOC(=O)C1=C(C)NC(=S)NC1c1cc(C)sc1C (stereo unspecified),-10,16,2.1%,-29,1.0,1.1
COc1ccc(-c2noc(COc3ccc(C)cc3C)n2)cc1OC,x,-4,2.6%,x,x,0.0
COc1cccc(C=NN(C)c2c([N+](=O)[O-])cc(C(F)(F)F)cc2[N+](=O)[O-])c1O,15,x,3.5%,u,-0.8,-0.6
Cc1onc(-c2ccccc2)c1C(=O)N1CCCSC1=Nc1ccccc1,-6&-15,25&18,1.2%&0.1%,-12&0,0.8&-6.4,-1.1&0.8
COc1cc2oc3cc(C#Cc4ccc(N)cc4)ccc3c(=O)c2cc1OC,-3,-1,17%,22,-1.0,1.9
Cc1nc2ccc(S(=O)(=O)N3CCCCC3)cc2s1,-4,-6,0.9%,10,6.5,2.3
Cc1ccc(OCCC(=O)OCc2csc(CC(=O)Nc3ccccc3C)n2)cc1,-19,-9,-1.2%,5,-4.4,0.7
COc1cc(C2Nc3cc(Cl)c(S(N)(=O)=O)cc3S(=O)(=O)N2)ccc1OCc1ccccc1 (stereo unspecified),-4,2,-1.4%,-4,-0.9,-1.7
COc1cc(CNC(=O)c2cc(-c3ccccc3)n[nH]2)cc(OC)c1OC,x,-12,-0.2%,x,x,0.9
O=C(NCC1CCCCC1)C1(CC2CC(c3ccc(Cl)cc3)=NO2)CCNCC1 (stereo unspecified),-9,32,-1.1%,-1,-3.0,-0.5
CS/C(N)=N/N=C/c1ccc2c(c1)OCO2,-6,-6,-3.1%,-5,-0.1,-0.4
COc1ccc(C(CC(=O)N2CCOCC2)c2c(O)cc(OC)cc2OC)cc1 (stereo unspecified),5,24&3,0.3%,13,-0.6,1.1&-0.7
O=C(Cc1cccs1)NCCc1csc(-c2ccccc2)n1,-4,7,-1.0%,2,-2.4,1.4
CCC(=O)N(Cc1cc(=O)[nH]c2ccccc12)c1ccccc1C,-2,1,-1.5%,1,-1.0,-0.6
Cc1c(Cl)cccc1NC(=O)C(C)N(c1ccccc1)S(C)(=O)=O (stereo unspecified),x,43,-0.7%,x,x,-1.0
CCn1c(SCC(=O)N/N=C\c2ccccc2OCC(=O)O)nnc1-c1ccc(Cl)cc1,-1,12,-1.2%,-5,-3.2,0.9
CCN(C(=O)C(C)Sc1nnc(-c2ccncc2)n1C)C1CCCCC1 (stereo unspecified),-6,13,1.2%,5,-3.2,0.0
Oc1ccccc1/C=N/n1c(-c2ccccc2)n[nH]c1=S,-7,-5,3.8%,-10,-4.8,-1.3
C(=N\Nc1nn[nH]n1)/c1ccccc1,6,-10,1.6%[38.3 µM],6,-0.6,-0.4
O=C(NS(=O)(=O)Oc1ccc(F)c(Cl)c1)OC[C@@H]1CCCN2CCCCC12 (stereo partly specified),-3,-6,4.2%,9,0.8,-0.8

# Other entries:
SMILES,D2 potentiator,TRPML1 inh,PINK1 modulator,Six1-Eya2 blk,D2 agonist,TRPML1 ag
CC(CNC(=O)[C@@H](Cc1ccccc1)NC(=O)CC[C@H]1O[C@@H](n2ccc(=O)[nH]c2=O)[C@H](O)[C@@H]1O)c1ccccc1 (stereo partly specified),-10,-20,0.4%,10,-4.9,0.5
COc1cc2c(cc1OC)-c1cc(Nc3ccccc3Br)nc(=O)n1CC2,-8,6,0.2%,u,-0.1,0.6
Cc1cc(C)c(C(=O)CSc2nc(C)cc(=O)[nH]2)c(C)c1,-5,-1,1.9%,0,-5.4,2.8
CNC(=O)c1c(NC(=O)CCS(=O)(=O)c2ccc(C)cc2)sc2c1CCN(C(=O)OC)C2,1,0,2.1%,6,-2.4,0.4
O=C(NCc1ccncc1)[C@@H]1CCCN1C(=O)[C@H]1CCCN1C(=O)c1cccc2ccccc12,x,x,-0.3%,4,x,-0.5
CS(=O)(=O)N(CC(=O)Nc1cc(Cl)ccc1Cl)c1ccccc1,-11,-5,-2.4%[38.3 µM],1,1.6,0.5
CC(O)C1C(=O)OC2(C)CC(C)(C)NC(=S)N12 (stereo unspecified),15,-10,0.9%,7,0.4,0.4
COC(=O)c1ccccc1NC(=S)N(Cc1ccc2c(c1)OCO2)Cc1cc2ccc(C)cc2[nH]c1=O,-22,28,1.4%,-20,-3.9,1.4
Cc1ccc(Cl)cc1NC(=O)Cn1c(=O)n(CCC(=O)N2CCc3ccccc3C2)c(=O)c2ccccc21,x,32,-0.6%,x,x,-0.5
CCCCOC(=O)CCNc1n[nH]c(=O)[nH]c1=O,-16,4,-0.2%,4,-0.6,-0.1
CN(C(=O)COC(=O)c1ccc(NS(=O)(=O)c2cccs2)cc1)C1CCCCC1,-9,40,-1.3%,-9,2.7,1.3
CC1CC1C(=O)OCC(=O)NC(=O)c1ccccc1 (stereo unspecified),-13,-7,0.7%,-4,u,0.0
CN(CC(=O)Nc1ccc(F)cc1)C(=O)c1cc2c(s1)CCCCC2,-4,4,-0.7%,-6,-6.7,-0.8
Cc1cccc(C2=NN(c3ccc(Br)cc3)[C@@H](C(=O)N3CCOC3=O)[C@@H]2c2ccc(Cl)cc2)c1,x,5,5.0%,37,-2.6,-0.3
C=CCNC(=S)N1CCOCC1,-17,10,-1.2%,-3,-1.7,-0.2
CCCNC(=O)CCCCn1c(=S)[nH]c2c([nH]c3ccc(OC)cc32)c1=O,-8,3,0.6%,1,5.0,0.5
CCC1Oc2ccc(C)cc2N(CC(=O)NCC2CCCO2)C1=O (stereo unspecified),-6,14,3.0%,1,-2.2,-0.5
COc1ccc(NC(=O)COC(=O)c2cc([N+](=O)[O-])ccc2N2CCOCC2)cc1,-25,0,4.9%,-1,-3.5,-0.4
C=C1CCN([C@@H](CC(C)C)C(=O)Nc2ccc(OC)cc2)S(=O)(=O)c2ccccc21,-15,-17,-0.7%,4,-1.6,0.4
COC(=O)COc1ccc(-c2ccccc2)cc1C=O,-2,-13,1.2%,12,-5.4,0.1
COc1ccccc1CN1CC(C(=O)NCCn2ccc(C)n2)CCC1=O (stereo unspecified),-1,24,0.2%,1,-0.5,-0.3
Cc1cccc(C(=O)Nc2ccc(C(=O)/C=C/c3ccncc3)cc2)c1,-5,-15,-2.4%,6,-0.1,1.3
O=C(OCc1cc(=O)n2nc(C3CC3)sc2n1)c1ccc(NC(=O)c2ccccc2F)cc1,x,-3,6.9%,x,x,-0.6
Cc1cnc(CNC(=O)c2ccc3oc(Cc4ccccc4)nc3c2)[nH]1,-23,-9,-0.2%,-5,-3.5,-0.5
CC(C)CC(=O)Nc1nnc(SCC(=O)NC2CCCCC2)s1,1,-16,0.3%,10,1.0,-0.4

# Structures shown so far that contain a nitro group on carbon:
SMILES,D2 potentiator,TRPML1 inh,PINK1 modulator,Six1-Eya2 blk,D2 agonist,TRPML1 ag
COc1cccc(C=NN(C)c2c([N+](=O)[O-])cc(C(F)(F)F)cc2[N+](=O)[O-])c1O,15,x,3.5%,u,-0.8,-0.6
COc1ccc(NC(=O)COC(=O)c2cc([N+](=O)[O-])ccc2N2CCOCC2)cc1,-25,0,4.9%,-1,-3.5,-0.4

# Other structures:
SMILES,D2 potentiator,TRPML1 inh,PINK1 modulator,Six1-Eya2 blk,D2 agonist,TRPML1 ag
CC(C)=CC(=O)N1CCC(n2nccc2NC(=O)CCc2ccccc2)CC1,1,6,-0.9%,1,2.2,-0.9
CC1CC(c2ccccc2)n2nc(NC(=O)c3cccs3)nc2N1 (stereo unspecified),-8,2,1.7%,-8,-2.0,-0.4
CCn1c(N)nc2c1c(=O)n(C)c(=O)n2C,-9,-9,-0.2%,12,-3.0,-0.2
COc1cccc(/C=C(\C#N)c2nc3ccccc3c(=O)[nH]2)c1OC,x,-4,0.7%,x,x,1.2
Cc1ccc(C(=O)Cc2ccccc2)cc1,1,-15,3.4%,32,-3.0,2.2
COc1ccc(N(CC(=O)NCc2ccccn2)S(=O)(=O)c2ccccc2[N+](=O)[O-])c(OC)c1,-8,12,-0.5%,-1,-3.4,-0.1
CCN1CCN(c2ccc(NC(=O)COc3ccc(Cl)cc3C)cc2)CC1,-6,0,2.8%,-2,-7.0,0.2
Cc1cccc(Nc2nc(N)nc(N)c2S(=O)(=O)c2ccccc2)c1,x,-2,0.3%,x,x,2.1
CCCC[C@@H](CNC)NC[C@H](Cc1ccc(O)cc1)NCCc1ccc(OCC)cc1,-22,2,-2.2%,-13,-4.3,-0.6
COC(=O)Cc1ccc(OC2(C)CCN(Cc3csc4ccccc34)C2)cc1 (stereo unspecified),-23,51,2.3%,-3,-3.0,-0.5
Cc1cc2oc(=O)cc(CN3CCN(S(=O)(=O)c4cccs4)CC3)c2cc1C,-7,21,2.4%,8,-0.1,-0.4
CC1CCCC(NC(=O)COC(=O)c2cccc(S(=O)(=O)N3CCCCC3)c2)C1C (stereo unspecified),-7,5,7.2%,6,6.5,-0.1
CC(C)[C@@H]1Cc2[nH][nH]c(=O)c2[C@H](c2ccc(F)cc2)O1,x,x,3.0%,5,x,-0.1
N#Cc1cc2c(nc1SC1CCCCC1O)CCCC2 (stereo unspecified),-14,36,0.5%,8,0.0,0.2
CC(C)C(=O)N1CCN(c2ccc([N+](=O)[O-])cc2Cl)CC1,11,-1,1.5%,-4,-2.4,-0.8
O=C(CSc1n[nH]c(=O)[nH]c1=O)Nc1ccc(C(=O)O)cc1,-13,5,1.3%,7,-3.0,-0.6
CCn1c(CSCc2ccc(C)cc2)nnc1SCC(=O)NCc1ccccc1,1,4,-0.2%,6,-2.8,-1.5
COc1cccc(C(=O)NCCS(=O)(=O)NCc2ccc(Cl)cc2)c1,-29,-12,5.6%,5,0.2,0.6
Cc1ccc2c(c1)c(N=NC(N)=O)c(O)n2C,-9,-1,0.6%,u,-2.8,-0.5
CCC(=O)N1CCC2(CC1)Oc1ccc(Cl)cc1C(=O)C21CC(c2ccccc2)=NO1 (stereo unspecified),-5,17,-1.2%,-3,8.8,0.0

# Gathered by group, the entries above containing a CF3 group
SMILES,D2 potentiator,TRPML1 inh,PINK1 modulator,Six1-Eya2 blk,D2 agonist,TRPML1 ag
COc1ccc(CCNC(=O)Cn2c(=O)c3sccc3n(CC(=O)Nc3cccc(C(F)(F)F)c3)c2=O)cc1OC,x,14,0.3%,x,x,-0.5
O=C(Nc1ccc(C(F)(F)F)cc1)c1ccc2ncsc2c1,-27,19,2.9%,5,5.2,-0.1
COc1cccc(C=NN(C)c2c([N+](=O)[O-])cc(C(F)(F)F)cc2[N+](=O)[O-])c1O,15,x,3.5%,u,-0.8,-0.6
